YjeE inh: YjeE (TsaE) inhibition, E. coli. actives 0.05% (n = 71,000). AID 605. Potency, µM. P0AF67. purified YjeE, fluorescence polarisation of a bound ADP probe; active = well fitted falling curve; inconclusive = weaker or top-dose-only fall, or a rising curve; inactive = flat or poorly fitted curve;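 further: top concentration of the series not given in the record; excess ADP was the control for the full effect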
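Fluorescence polarization of a BODIPY Texas Red–ADP probe (2 uM) bound to purified YjeE (10 uM) was read after 15 min room-temperature incubation with compounds. Loss of polarization marks inhibitors; ADP serves as titrated control.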
PK Bst: alters activity of Bacillus stearothermophilus pyruvate kinase; partly purified Bacillus stearothermophilus pyruvate kinase, luminescence ATP production; ribose 5-phosphate activator present at AC10; Potency, µM; actives 1.2% (n = 51,000); AID 361; in the data active means potency below about 11 µM; inconclusive means mostly about 12 µM to 25 µM; inactive means weaker than that;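 the screen sought inhibitors and activators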;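 further: potency means the concentration at half of the fitted maximal effect; scaled between full activation by ribose 5 phosphate and full inhibition by luteolin; about four in five hits inhibit and the cells do not say which; series up to 57 µM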
* = called active by the depositor; i = inactive; x = not tested or not shown. Not all compounds are listed, so the mix of outcomes need not match the whole.

The first 15 records (preview)
SMILES	YjeE inh	PK Bst
O=C(NC1CCCc2ccccc21)C1CCN(C(=O)c2sccc2-n2cccc2)CC1 (stereo not drawn)	i	x
CCOC(=O)N1CCN(c2c(N3CC=C(c4ccccc4)CC3)c(=O)c2=O)CC1	i	x
CC(C)N(Cc1nc(-c2ccccc2)no1)C(=O)c1ccc(Br)o1	i	>57
O=C(NCc1ccncc1)C1CCCN(S(=O)(=O)Cc2ccccc2)C1 (stereo not drawn)	i	>57
N=c1n(Cc2ccccc2)c2ccccc2n1CC(O)c1ccco1 (stereo not drawn)	i	>57
COc1ccc(CNC2CCCCC2)cc1	i	>57
COc1ccccc1CNc1ccnc(-c2ccccc2CN(C)C)n1	i	x
COCCOC(=O)c1c(C)oc2ccc(OC(=O)COc3c(F)c(F)c(F)c(F)c3F)cc12	x	>25.6
Cc1ccc2cc(CN(Cc3ccco3)C(=O)c3cccs3)c(=O)[nH]c2c1	i	>57
Cc1nc(NCc2ccccc2)[nH]c(=O)c1CCC(C)C	i	>57
Cc1ccc(C2CC(=O)c3cnc(NC(=O)c4ccco4)nc3C2)cc1 (stereo not drawn)	i	>57
O=C(CSc1ccc2nnc(-c3ccccc3)n2n1)N1CCCCC1	i	>57
Cc1cc(C)nc(NC(=O)NS(=O)(=O)Nc2ccc(Br)cn2)n1	i	>57
O=C(NCCc1ccccc1)C1CCN(S(=O)(=O)c2ccc(-n3cnnn3)cc2)CC1	i	>57
O=C(NC1CCCCC1)C1CCCN(c2nnnn2-c2ccccc2)C1 (stereo not drawn)	i	>57

All compounds of this part (from the top)
SMILES	YjeE inh	PK Bst
O=C(NC1CCCc2ccccc21)C1CCN(C(=O)c2sccc2-n2cccc2)CC1 (stereo not drawn)	i	x
CCOC(=O)N1CCN(c2c(N3CC=C(c4ccccc4)CC3)c(=O)c2=O)CC1	i	x
CC(C)N(Cc1nc(-c2ccccc2)no1)C(=O)c1ccc(Br)o1	i	>57
O=C(NCc1ccncc1)C1CCCN(S(=O)(=O)Cc2ccccc2)C1 (stereo not drawn)	i	>57
N=c1n(Cc2ccccc2)c2ccccc2n1CC(O)c1ccco1 (stereo not drawn)	i	>57
COc1ccc(CNC2CCCCC2)cc1	i	>57
COc1ccccc1CNc1ccnc(-c2ccccc2CN(C)C)n1	i	x
COCCOC(=O)c1c(C)oc2ccc(OC(=O)COc3c(F)c(F)c(F)c(F)c3F)cc12	x	>25.6
Cc1ccc2cc(CN(Cc3ccco3)C(=O)c3cccs3)c(=O)[nH]c2c1	i	>57
Cc1nc(NCc2ccccc2)[nH]c(=O)c1CCC(C)C	i	>57
Cc1ccc(C2CC(=O)c3cnc(NC(=O)c4ccco4)nc3C2)cc1 (stereo not drawn)	i	>57
O=C(CSc1ccc2nnc(-c3ccccc3)n2n1)N1CCCCC1	i	>57
Cc1cc(C)nc(NC(=O)NS(=O)(=O)Nc2ccc(Br)cn2)n1	i	>57
O=C(NCCc1ccccc1)C1CCN(S(=O)(=O)c2ccc(-n3cnnn3)cc2)CC1	i	>57
O=C(NC1CCCCC1)C1CCCN(c2nnnn2-c2ccccc2)C1 (stereo not drawn)	i	>57
CCn1c(COc2ccc(Cl)c(C)c2)nnc1SCC(=O)N1CCCC1	i	>57
CC(C)(C)NC(=O)[C@@H]1C[C@@H]2CCCC[C@@H]2CN1C[C@@H](O)[C@H](Cc1ccccc1)NC(=O)[C@H](CC(N)=O)NC(=O)c1ccc2ccccc2n1	i	x
c1ccc(-c2noc(C34CC5CC(CC(C5)C3)C4)n2)nc1	i	x
Cc1nnc(SCC(=O)Nc2c(Cl)cccc2Cl)[nH]c1=O	i	x
Cc1ccc(C)c(N(CC(N)=O)S(C)(=O)=O)c1	i	>57
CC1(C)CC(=O)c2cnc(NCC3CCCO3)nc2C1 (stereo not drawn)	i	>57
COc1ccc(S(=O)(=O)N(Cc2ccc(OC)c(OC)c2)Cc2ccco2)cc1	i	>57
COc1ccc(Cl)cc1NS(=O)(=O)c1cc(Cl)ccc1OC	i	x
CCCC(=O)c1c(NC(C)C)cc(C)oc1=O	i	>57
c1ccc2sc(SCSc3nc4ccccc4s3)nc2c1	i	x

More entries follow.
SMILES	YjeE inh	PK Bst
COc1ccc(-c2cc(C(F)(F)F)nc(SCC(N)=O)n2)cc1	i	>57
CCSc1ncc(C#N)c(=O)[nH]1	i	>57
CC(OC(=O)c1nn(C)c(=O)c2ccccc12)C(=O)NCc1ccc2c(c1)OCO2 (stereo not drawn)	i	>57
CCN1CCN(c2ncc(C(=O)Nc3ccccc3C(=O)OC)c3ccccc23)CC1	i	i
CCC(OC(=O)c1nsc(Cl)c1Cl)C(=O)NCc1ccco1 (stereo not drawn)	i	>57
Cc1ccc(C2=CSC3=NCCN23)c(C)c1	i	>57
O=C1CC(c2ccccc2)CC(O)=C1C=NCC1CCCO1 (stereo not drawn)	i	x
O=C(O)c1cccc(S(=O)(=O)NCC2CCCO2)c1 (stereo not drawn)	i	>57
COc1cccc(-c2ccc3ncnc(N(C)C)c3c2)c1	i	x
COc1ccc(CC(C)N2CCN(Cc3ccccc3)CC2)c(OC)c1 (stereo not drawn)	i	x
O=C(Nc1ccccc1)C1CC=CCC1C(=O)OCC1CCCO1 (stereo not drawn)	i	x
CCn1c(SCc2nnc(-c3ccccc3)o2)nc2c1c(=O)n(C)c(=O)n2C	i	>57
Nc1[nH]c(=O)nc2c1ncn2[C@H]1O[C@@H](CO)[C@@H](O)[C@@H]1O	i	x
Cc1cccc(-n2c(SCC(=O)N3CCCC3)nnc2-c2ccccn2)c1C	i	>57
COC(=O)c1ccc(Cn2c(CN3CCOCC3)nc3ccccc3c2=O)o1	i	>57
C=CCn1c(=O)n(CC=C)c(=O)n(CC=C)c1=O	i	x
N#Cc1ccc(CN2CC[C@@]3(CCCN(C(=O)c4cnccn4)C3)C2)cc1	i	x
CCn1cc(C(=O)N2CC(C)CC(C)C2)c(=O)c2cc(S(=O)(=O)N(C)C)ccc21 (stereo not drawn)	i	x
Cc1ccc2cc(C(c3nnnn3CC3CCCO3)N3CCCC4(CCCCC4)C3)c(=O)[nH]c2c1 (stereo not drawn)	i	>57
COc1cccc(CNC(=O)C2CCN(S(=O)(=O)N3CCCCC3)CC2)c1	i	>57
COCCCNC(=O)c1ccc(CS(=O)(=O)c2ccc(Br)cc2)o1	i	x
CC(C)CC1(C)NC(=O)N(CCN2C(=O)c3ccccc3C2=O)C1=O (stereo not drawn)	i	>57
CCCOC(=O)c1ccc2c(c1)C(=O)N(c1ccccc1)C2=O	i	>57
CCCc1cc(N2CCCC(C(=O)NCC)C2)n2ncnc2n1 (stereo not drawn)	i	>57
Cc1cc(Nc2ccc(F)c(Cl)c2)n2nc(C)nc2n1	i	x

The list goes on.
SMILES	YjeE inh	PK Bst
O=C(CSc1nnc(CNC(=O)c2ccccc2F)o1)Nc1ccc2c(c1)OCCO2	i	>57
CC(=O)c1ccc(OCC(O)CN2CCN(Cc3ccccc3)CC2)cc1 (stereo not drawn)	i	x
C[C@@H]1CCCN(CP(=O)(c2ccccc2)c2ccccc2)C1	i	x
O=C(NC(C(=O)c1ccccc1)N1CCOCC1)c1cccs1 (stereo not drawn)	i	>57
CCc1nc(CNC(=O)c2cc(OC)c(OC)c(OC)c2)no1	i	x
COc1ccc(C(=O)O)cc1S(=O)(=O)NCCCN1CCCC1=O	i	>57
COc1cc2[nH]c(=O)n(CCC(=O)NCc3cccnc3)c(=O)c2cc1OC	i	>57
CC(C)OCCCNC(=O)C1CC(=O)N(C2CCCCCCC2)C1 (stereo not drawn)	i	>57
O=C(NCc1ccco1)c1cc(-c2ccc(F)cc2)on1	i	>57
Cc1ccc(CNC(=O)[C@H](C)[C@@H]2C[C@@]2(C)[C@@H](NC(=O)OCc2ccccc2)c2ccccc2)o1	i	x
COc1ccc2[nH]c3nc(SC(C)C)nnc3c2c1	i	4.49*
CCCc1nc(SCC(=O)NCc2ccc3c(c2)OCO3)c2c(=O)n(C)c(=O)n(C)c2n1	i	x
CCc1ccccc1S(=O)(=O)Cc1ccc(C(=O)N2CCN(c3ccccc3OC)CC2)o1	i	x
Cc1cccc(NC(=O)c2cc3ccccc3c(=O)o2)n1	i	>57
CCOC(=O)c1cccc(NC(=O)C(NS(=O)(=O)c2ccc3c(c2)CCN3C(C)=O)C(C)C)c1 (stereo not drawn)	i	>57
O=C(CCN1C(=O)COc2ccccc21)NCc1cccnc1	i	>57
O=C(Nc1ccc(Cl)cc1C(=O)NCCN1CCOCC1)c1ccco1	i	i
CCn1nccc1C(=O)Nc1ccc(Cl)cc1Cl	i	>57
O=C1CC(c2ccco2)c2ccc3ccccc3c2N1 (stereo not drawn)	i	>57
CN(C)S(=O)(=O)c1ccc(S(=O)(=O)N(Cc2ccco2)Cc2ccccc2Cl)cc1	i	>57
Oc1cc2c(cc1O)[C@H](c1ccccc1)CNCC2	i	x
O=C(c1cccc(F)c1)N1CCN(c2cccc(Cl)c2)CC1	i	>57
CCOc1ccc(Nc2nc(Cc3nnc(SCC(=O)NCc4ccco4)n3CC)cs2)cc1	i	x
Cn1nc(C(=O)NCc2ccccc2)c2ccccc2c1=O	i	>57
O=C1c2ccccc2CCC1C(O)c1ccccn1 (stereo not drawn)	i	>57

(continued)
SMILES	YjeE inh	PK Bst
CC(NC(=O)OC(C)(C)C)C(=O)Oc1ccc2ccc(=O)oc2c1 (stereo not drawn)	x	>11.4
COC(=O)c1sc(=S)n(-c2cc(F)ccc2F)c1N	i	>57
COc1ccc(-c2noc(Cc3ccc(Cl)cc3)n2)cc1OC	i	x
CC1(C)C(=O)C2(CCCCC2)C(=O)OC1c1ccc(O)cc1 (stereo not drawn)	i	>57
Nc1nnc(SCc2cccnc2)s1	i	>57
COc1ccc2c(c1)c1ccccc1n2C	i	x
COc1ccccc1CNc1ccnc(-c2cccc(C#N)c2)n1	i	x
CCN(CC)CCNC(=O)CS(=O)Cc1nc(-c2ccc(Cl)cc2)oc1C (stereo not drawn)	i	>11.4
CCNC(=O)NC(=O)COC(=O)CCCSc1nc2ccccc2[nH]1	i	>57
COc1cccc(Nc2ncc3nc(-c4cccs4)c(=O)n(-c4ccccc4)c3n2)c1	i	x
N#C/C(=C\c1ccc(O)c(O)c1)C(=O)c1ccc(O)c(O)c1	i	x
O=c1c(-c2ccccc2)nc2cncnc2n1Cc1ccccc1	i	x
Cc1ccc2nc(SCC(=O)Nc3cc(C)on3)[nH]c2c1	i	>57
CN(CCOc1ccc(Cl)cc1)c1ccc(S(=O)(=O)N2CCCCC2)cn1	i	>57
COc1ccc(CNc2nc(-c3ccc4c(c3)OCO4)nc3ccccc23)c(OC)c1	i	x
CCC1=[N+]([O-])C(C)(/C(C)=N\O)N(O)C1(C)C (stereo not drawn)	i	>57
Cc1nc2cc(C(=O)O)ccc2n1-c1ccc(F)cc1F	i	>57
O=C(NCc1nc2ccccc2[nH]1)c1ccc(Cl)c(S(=O)(=O)N2CCCC2)c1	i	>57
CCOC(=O)COc1ccc(-c2nnc(-c3ccccc3)o2)cc1	i	x
CCn1c(C)c(CCC(=O)O)c(=O)n2nc(-c3ccccc3OC)cc12	i	>57
CC(=O)Nc1ccc(NC(=O)CSc2nccn2Cc2ccccc2)cc1	i	x
Cc1cccn2c(=O)c3cc(C(N)=S)c(=N)n(CCCOC(C)C)c3nc12	x	>25.6
Cc1oc(-c2ccc(Cl)cc2)nc1CN1CCC(C(=O)N2CCc3ccccc3C2)CC1	i	x
COc1ccccc1NC(=O)Nc1ccnn1Cc1cccs1	i	>57
Cc1ccc(C2CC(c3ccccc3Cl)n3nc(N)nc3N2)cc1 (stereo not drawn)	i	x

Next structures
SMILES	YjeE inh	PK Bst
CCn1cc(C(=O)N2CCN(Cc3ccc4c(c3)OCO4)CC2)c2cc(OC)c(OC)cc2c1=O	i	>57
Cc1c(C(=O)O)oc2c3c(ccc12)OCCO3	i	x
COc1ncnc2c1N[C@@](C)(O)c1c(F)c(F)c(F)c(F)c1S2	i	>57
CSc1ccccc1NC(=O)c1cccs1	i	>57
N#Cc1c2c(c(N3CCN(c4ccccn4)CC3)n3c1nc1ccccc13)CCC2	i	x
O=C(NCc1ccccn1)[C@@H]1C[C@H]1[C@@H](NP(=O)(c1ccccc1)c1ccccc1)c1ccccc1	i	x
Cc1cc2cc(CN(C(=O)C3CC3)C3CCCC3)c3nnnn3c2cc1C	i	>57
O=C(O)c1ccc(OC(F)(F)C(F)C(F)(F)F)cc1 (stereo not drawn)	i	>57
CCCS(=O)(=O)N1CCN(C(=O)COc2ccc(-c3ccccc3)cc2)CC1	i	x
CC(=O)OCN(C#N)c1nc(N(C)C)nc(N(C)C)n1	i	>57
COc1cc(C(C#N)N2CCCCC2)ccc1O (stereo not drawn)	i	x
Cc1ccccc1OCC(=O)Nc1ccccc1CO	i	x
O=C(Cc1ccccc1)Nc1ccc(NC(=O)c2ccco2)nc1	i	>57
CC1(C)c2ssc(=S)c2-c2ccccc2N1C(=O)c1ccco1	i	>57
CCn1c(=O)c(-[n+]2ccccc2)c(O)c2ccccc21	i	>57
CCc1ccc2[nH]c(=O)c(CN(CCN3CCOCC3)C(=O)Nc3ccccc3F)cc2c1	i	>57
CC(=O)Nc1sc2c(c1C#N)CC(C)(C)NC2(C)C	i	>57
CCCc1cc(=O)[nH]c(SCC(=O)N(CC(C)C)C2CCS(=O)(=O)C2)n1 (stereo not drawn)	i	>57
COCCN(C(=O)Nc1ccccc1)c1ccccc1C	x	>25.6
O=C(NCCCNCc1ccccc1)c1ccncc1	i	>57
COC(=O)c1ccc(C(/C=C/[C@@H](C)C(=O)N(C)C)NC(=O)OCc2ccccc2)cc1 (stereo partly drawn)	i	x
CCc1nc(Nc2ccncc2)c2oc3ccccc3c2n1	i	x
Cc1cccc(N(C)c2cc(C)nc3nc(C)nn23)c1	i	x
Cn1cccc1Cc1nnc(SCC(=O)N2CCCCCC2)n1-c1ccc(F)cc1	i	x

Source: PubChem BioAssay
